# Mtb growth = M. tuberculosis H37Rv growth inhibitors, H37Rv strain (AID 1626). M. tuberculosis H37Rv growth inhibition; higher % means a stronger effect. inhibition, % at 10 µM, or IC50 in µM where a hit was titrated. 0.95% of 220,000 active;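 active = confirmed in a dose series; inconclusive = inhibition above 80% but not taken into the dose series; inactive = below 80% or under 30% at every dose of the series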;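 note: bacteria incubated seven days before Alamar blue readout; 0% = bacteria only wells and 100% = bacteria with antibiotic wells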
# RecA intein inh = inhibitors of M. tuberculosis RecA intein splicing; inhibition, %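 (about 9 µM by stock and volumes)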; 0.75% of 290,000 active; AID 2221; P9WHJ3; cell-free RecA intein splicing, fluorescence; in the data active = inhibition above about 30%; inconclusive = no clear call, values can overlap the other calls;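 note: 0% = vehicle wells and 100% = reference inhibitor control wells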
# Target sequence (P9WHJ3 whole entry, looked up): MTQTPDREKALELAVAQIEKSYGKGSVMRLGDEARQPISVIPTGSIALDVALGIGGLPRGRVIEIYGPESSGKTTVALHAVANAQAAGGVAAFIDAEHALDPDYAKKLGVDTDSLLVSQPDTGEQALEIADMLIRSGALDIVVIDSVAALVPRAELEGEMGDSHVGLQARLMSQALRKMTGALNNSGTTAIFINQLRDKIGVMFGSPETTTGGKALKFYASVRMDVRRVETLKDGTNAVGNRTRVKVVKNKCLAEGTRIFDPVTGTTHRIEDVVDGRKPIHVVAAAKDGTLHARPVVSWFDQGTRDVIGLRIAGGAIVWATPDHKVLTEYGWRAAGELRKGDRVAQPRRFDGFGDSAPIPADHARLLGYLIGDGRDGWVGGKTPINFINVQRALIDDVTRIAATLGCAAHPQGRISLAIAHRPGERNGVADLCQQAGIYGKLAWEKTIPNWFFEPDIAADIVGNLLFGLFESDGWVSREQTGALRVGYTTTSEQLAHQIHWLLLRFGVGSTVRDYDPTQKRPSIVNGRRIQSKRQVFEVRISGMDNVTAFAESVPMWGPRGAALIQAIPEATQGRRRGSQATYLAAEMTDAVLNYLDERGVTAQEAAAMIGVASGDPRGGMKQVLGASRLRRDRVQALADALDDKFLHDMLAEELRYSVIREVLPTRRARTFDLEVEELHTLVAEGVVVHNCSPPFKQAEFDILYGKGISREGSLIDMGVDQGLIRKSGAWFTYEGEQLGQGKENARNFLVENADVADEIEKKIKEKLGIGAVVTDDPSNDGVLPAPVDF
# YopH inh = inhibitors of Yersinia enterocolitica YopH tyrosine phosphatase; fluorescence Ex485/Em525; inhibition, %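 (about 10 µM by stock and volumes)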; 0.16% of 140,000 active; AID 898;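 active = inhibition of 50% or more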;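 note: controls were vehicle for no effect and minimum signal wells for full effect; inactives centre near -20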
# Mtb bLac sens = beta-lactam sensitization of Mtb H37Rv. M. tuberculosis H37Rv growth with meropenem, percent inhibition; hits of this screen are not shown here. inhibition, % at 25 µM. 0.27% of 330,000 active. AID 434955;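 active = about 74% or more and at least 40 points above the plate without the antibiotic, then above 30% in a dose series; inconclusive = first-round hits that could not be retested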;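 note: growth measured after seven days incubation then overnight dye step; 0% = bacteria only wells and 100% = bacteria with antibiotic; twin plates without the antibiotic show which effects depend on it; some results filed as inactive read as strong as hits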
# Arbovirus anti = blocks arbovirus infection. arbovirus infection cell-based antiviral screen. inhibition, % at 10 µM. 0.37% of 200,000 active;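 active = inhibition from about 30%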;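 note: bluetongue infection of BSR cells; cell survival read as ATP light after 72 h; 0% = infected wells without compound and 100% = uninfected wells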
# Arbovirus anti repeat = also measured in Arbovirus anti; calls as there; inhibition, %; measured here: 10K subset replicate screen; many hits read low in the repeat;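 first of two repeat runs on a subset; 0% = infected and 100% = uninfected wells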
# * = called active by the depositor; i = inactive; ? = inconclusive; · = not tested or not shown.
SMILES,Mtb growth,RecA intein inh,YopH inh,Mtb bLac sens,Arbovirus anti,others
CCN(CCCn1c(=S)[nH]c2ccc(N3CCOCC3)cc2c1=O)c1ccccc1,?,-4.4,·,50,-4,
COc1cccc(C2C([N+](=O)[O-])=C(N)Oc3c2c(=O)oc2ccccc32)c1 (stereo not given),0%,1.5,-25,7,10,
Cc1cnnn1-c1ccc(C(=O)CCl)cc1,-4%,52*,-100,-5,8,
Cc1nc(NC(=O)CSc2nncs2)c(Cl)cc1Cl,-2%,2.1,·,-3,·,
CCC(C)[C@H](NC(=O)NCc1ccc(S(N)(=O)=O)cc1)C(=O)OC (stereo not given in full),7%,-1.7,·,-2,0,
O=C(NCc1ccncc1)/C(=C/c1cccc([N+](=O)[O-])c1)NC(=O)c1ccccc1,0%,0.8,·,-15,·,
CCCCn1nnnc1SCC(=O)NC1CCCCC1,·,2.1,·,-3,·,
CC1CN(C(=O)CCc2ccccc2)C(C)CN1C(=O)CCc1ccccc1 (stereo not given),-3%,4.6,-13,-8,3,
CC1(C)OC(=O)N(c2ccccc2)C12C=Cc1c(ccc3ccccc13)O2 (stereo not given),3%,25,-12,-2,-12,
CNC(=O)Nc1cccc(C(F)(F)F)c1,-9%,2.3,-10,-3,3,
COC(=O)c1cc(Br)c(=O)n(CCN2CCCC2)c1,5%,-1.5,0,-8,13,
COc1cc(NC(=O)Cc2cccs2)cc(OC)c1,1%,·,-23,-5,-7,
Nc1ccc(-n2nc(C(F)(F)F)cc2C(F)(F)F)cc1,-4%,-0.5,·,4,·,
O=C(Nc1nnc(-c2ccco2)o1)c1ccc(Cl)cc1,?,0.0,·,91,-9,
COc1cc(/C=N/NC(=O)C(=O)NCc2cccnc2)cc(OC)c1OC,2%,1.5,-26,-5,-1,
COCc1nnc(NC(=O)c2ccccc2[N+](=O)[O-])s1,0%,6.3,-9,-2,-9,
CCOc1ccc(S(=O)(=O)NCCC(=O)NCC(c2cccs2)N(C)C)cc1 (stereo not given),·,-0.4,·,8,·,
CC(C)(C)NC(=O)COc1coc(CN2CCN(Cc3ccccc3)CC2)cc1=O,·,-1.3,·,-10,·,
O=C(Cn1cnc2ccccc2c1=O)OCC(=O)c1ccc2c(c1)OCCO2,-4%,0.3,-26,9,4,
CC(C)OCC(O)CN1CCN(CCN2C(=O)c3cccc4cccc(c34)C2=O)CC1 (stereo not given),·,-0.3,·,-8,·,
Cc1cc(C)c(C(=O)NCC2CCCO2)c(C)c1C(=O)NCC1CCCO1 (stereo not given),·,0.1,·,-8,·,
CCOC(=O)c1nn(-c2ccc(F)cc2)c2nc(CC(C)C)c(C#N)c(=O)n12,3%,0.5,-20,-5,2,
COC(=O)c1cccc(NS(=O)(=O)c2ccc(NC(C)=O)cc2)c1C,-8%,-1.1,-5,-3,6,
COc1cccc(NC(=O)CNC(=O)c2cccs2)c1,-6%,-0.2,-19,-6,1,
O=C(Nc1nc2ccccc2[nH]1)c1cccc(F)c1,·,4.4,·,92,·,
O=C1C2CC=C(Cl)CC2C(=O)N1CC1OCCc2ccccc21 (stereo not given),-2%,-3.7,-12,-10,-6,
C=CCSc1nc(C)c(CCCC)c(=O)[nH]1,3%,1.0,·,3,5,
COc1cccc(C(=O)Nc2ccc(C(=O)O)cc2)c1,-5%,-1.4,-58,1,0,
O=C(O)C1CCC(Cn2c(SCc3cc(=O)n4cc(Cl)ccc4n3)nc3ccsc3c2=O)CC1 (stereo not given),11%,0.2,·,6,3,
N=c1c(C(=O)NCC2CCCO2)cc2c(=O)n3ccccc3nc2n1Cc1ccc(F)cc1 (stereo not given),·,i,·,4,·,
COC(=O)/C=C(\C)NC(=O)c1ccc(F)cc1,-3%,0.3,-13,2,4,
CCCc1cc(=O)[nH]c(SCC(=O)N(C)CC(=O)Nc2ccccc2CC)n1,-7%,1.6,-13,4,-4,
Cc1ccc(CNC(=O)COC(=O)CSc2cc(C)c(Br)cc2C)cc1,2%,0.3,-52,-1,2,
CCOc1ccc(NC(=O)CC2C(=O)N(c3ccccc3)C(=O)N2Cc2ccccn2)cc1 (stereo not given),10%,2.7,-37,6,2,
O=C(CN1C(=O)C2C3C=CC(C3)C2C1=O)Nc1ccc(S(=O)(=O)N2CCCCC2)cc1 (stereo not given),-2%,-4.9,-6,-3,4,
Cc1nn(C)c(C)c1NC(=O)c1cc2nc(-c3ccco3)cc(C(F)(F)F)n2n1,-5%,-11,·,1,-6,
CCS(CC)=NS(=O)(=O)c1ccc(NC(C)=O)cc1,-16%,-1.1,-33,3,-1,
O=C(N[C@H](Cc1cc(=O)[nH]c2ccccc12)C(=O)O)c1ccc(Cl)cc1,·,-0.5,·,-4,·,
O=C(/C=C/c1ccccc1)Nc1ncn[nH]1,5%,0.5,-14,18,10,
CCn1c(SCC(=O)n2c(C)c(C)c3ccccc32)nnc1-c1ccco1,-4%,0.2,-35,?,7,
CC(=O)C1=C(C)N(CC2CC2)C(=O)N[C@H]1c1ccc(Br)cc1,2%,-1.3,-14,-1,1,
CCCCNC(=O)c1ccc2c(c1)ncn2C1CCCCC1,5%,1.0,-4,31,1,
O=[N+]([O-])c1ccc(N2CCN(S(=O)(=O)c3cnc[nH]3)CC2)cc1,·,0.6,·,-2,·,
O=C(c1ccccc1)N1CCOC12CCN(c1ncc(C(F)(F)F)cc1Cl)CC2,13%,-0.3,-18,3,-4,
Cc1cccc(C)c1NC(=O)C(NC(=O)CN1C(=O)c2ccccc2C1=O)c1ccccc1 (stereo not given),-9%,0.5,-9,2,-4,
O=C(Nc1ccccc1)c1ccc(S(=O)(=O)N2CCC(C(=O)O)CC2)cc1,·,4.4,·,-2,·,
CCOc1ccc2[nH]c(O)c(NC(C)=O)c2c1,-4%,-0.9,-10,4,5,
CN(C)CCCCCCCCCCC(=O)/C=N/O,8%,-1.5,-31,4,·,
O=C1C=CC2C(c3ccc4c(c3)OCO4)CC1N2Cc1ccccc1 (stereo not given),-2%,2.4,-2,-2,-13,
O=C(Nc1ccc(Br)c(C(F)(F)F)c1)c1ccccc1,32%,18,8,17,-29,
CCCCn1c(SCC(=O)Nc2cc(NC(=O)c3ccco3)ccc2C)nc2ccccc2c1=O,11%,2.7,-26,8,-10,
Cc1ccccc1OCC(=O)Nc1nc(C)c(C(=O)N(C)C)s1,-2%,2.7,-14,7,1,
COc1ccc(N(CC(=O)Nc2cc(Cl)ccc2OC)C2=NC3CS(=O)(=O)CC3S2)cc1 (stereo not given),·,0.3,·,2,·,
N#CC1=C(SCC(=O)NCc2ccccc2)NC(=O)CC1c1ccco1 (stereo not given),5%,-0.6,-28,-10,-5,
COc1ccc(C(=O)Nc2cc3c(cc2N2CCOCC2)n(C)c(=O)n3C)cc1OC,·,-1.2,·,1,·,
CN(C)c1cc[n+](CC[n+]2ccc(N(C)C)cc2)cc1,·,-3.1,·,-5,·,
C=CCOc1ccc(/C=C\c2nc(O)c([N+](=O)[O-])c(=O)[nH]2)cc1OC,·,-1.1,·,-2,·,
CCCc1nc(N)c(C#N)c(N)c1C#N,-17%,-0.1,-41,-1,2,
CCCCN(CC)C(=O)C1CCC(CNS(=O)(=O)c2cccc3nsnc23)CC1 (stereo not given),·,-6.9,·,-8,·,
O=C(Cn1nc(CNc2ccc(Cl)cc2)[n+]2c1CCCCC2)c1ccc(Br)cc1,4.6µM*,3.6,-15,95,15,

# Two neighbouring entries from above, for reference:
SMILES,Mtb growth,RecA intein inh,YopH inh,Mtb bLac sens,Arbovirus anti,others
CCCCN(CC)C(=O)C1CCC(CNS(=O)(=O)c2cccc3nsnc23)CC1 (stereo not given),·,-6.9,·,-8,·,
O=C(Cn1nc(CNc2ccc(Cl)cc2)[n+]2c1CCCCC2)c1ccc(Br)cc1,4.6µM*,3.6,-15,95,15,

# Next part
SMILES,Mtb growth,RecA intein inh,YopH inh,Mtb bLac sens,Arbovirus anti,others
O=C1CCCC2=C1C(c1ccccc1)CC(=O)N2c1ccc(F)cc1F (stereo not given),-5%,0.6,·,1,18,
COc1cc(C2C(C#N)=C(N)Oc3cc4c(cc32)OCO4)cc(OC)c1OC (stereo not given),-11%,-10,·,-4,-19,
COc1ncccc1-c1nnn(-c2ccc(C)cc2)n1,12%,4.3,·,3,5,
COC(=O)c1cc(C(=O)OC)n(Cc2ccc(Cl)cc2Cl)n1,-4%,·,-8,-6,6,
CCc1cc(C(=O)c2ccc(OC)cc2)c(NC(=O)CCC(=O)O)s1,-8%,3.1,·,17,·,
O=C(NC12CC3CC(CC(C3)C1)C2)c1ccco1,·,0.5,·,0,·,
CC(C)(C)C(=O)Nc1nnc(SCC(=O)NC2CCCCC2)s1,·,-1.2,·,-6,·,
COc1ccc(NC2=NCCCS2)cc1OC,·,-4.0,·,2,·,
CCN1C(=O)C(O)(CC(=O)c2ccccn2)c2ccccc21 (stereo not given),-6%,0.2,-6,-10,-10,
Cc1cc(C)nc(N(C#N)Cc2cccc([N+](=O)[O-])c2)n1,-3%,1.4,·,-2,1,
Cc1nc2ccccc2nc(C)c1=NOCc1cccc(F)c1,-5%,-1.2,·,-12,22,
O=C(COc1ccccc1)N1c2ccccc2Sc2ccccc21,-4%,3.3,-10,-8,6,
Cc1c(F)cccc1NC(=O)CCC(=O)O,0%,-0.3,-16,-1,-1,
Cc1ccccc1-c1cc(-c2ccccc2O)n[nH]1,4%,16,-28,88,4,
Cc1sc(NC(=O)C2CSC3(C)CCC(=O)N23)nc1-c1ccccc1 (stereo not given),·,1.5,·,-3,·,
O=C(NNC(=S)NC1CCCCC1)c1ccccc1Br,·,2.1,·,-9,·,
O=C(Cc1c(O)c2ccccc2[nH]c1=O)NCc1ccc(F)cc1,-5%,-2.8,-29,-4,6,
COc1ccc(/C=C2\SC(=O)N(CC(=O)Nc3ccc(F)cc3)C2=O)cc1O,·,1.6,·,8,·,
COc1cccc(C(c2sc3nc(C)nn3c2O)N2CCC3(CC2)OCCO3)c1 (stereo not given),-6%,-0.3,-16,5,-1,
O=C(c1ccccc1SCc1ccc(F)cc1)N1CCOCC1,2%,4.1,·,8,-3,
COc1ccc(CNc2ncc(-c3ccc(F)cc3)n2C)c2ccccc12,·,9.9,·,87,·,
O=C(CCCCl)NC(=S)Nc1ccc(N2CCOCC2)cc1,-2%,-0.6,·,-3,·,
CCCCn1c(=S)[nH]c2ccccc2c1=O,8%,2.5,-24,3,5,
O=C(NCCO)c1cc([N+](=O)[O-])cc2c1C=Cc1ccccc1O2,-1%,-1.2,·,2,5,
COCC(=O)Nc1ccc([N+](=O)[O-])cc1OC,-3%,-3.2,-27,-2,3,
CCS(=O)(=O)c1ccc2c(c1)N(S(=O)(=O)c1ccc(C)cc1)CC(C(=O)O)O2 (stereo not given),-7%,0.2,·,3,2,
O=C(c1ccccc1S(=O)(=O)NCc1ccccc1)N1CCCC1,-5%,1.4,-23,-5,1,Arbovirus anti repeat=1
Cc1c(C(=O)N2CCc3ccccc3C2)oc2ccc(S(=O)(=O)N3CC(C)CC(C)C3)cc12 (stereo not given),7%,5.8,5,-7,5,
CCOCCCN(C)C1CCN(C(=O)c2oc3ccccc3c2NC(=O)COc2cccc(C)c2)CC1,·,1.7,·,-1,·,
S=C(Nc1ccc(Cl)cc1)c1nc2ccccc2[nH]1,17%,16,-15,-3,-16,

# Reprinted at random: 6 records from the list, in no set order.
SMILES,Mtb growth,RecA intein inh,YopH inh,Mtb bLac sens,Arbovirus anti,others
COc1ccc(CNc2ncc(-c3ccc(F)cc3)n2C)c2ccccc12,·,9.9,·,87,·,
O=C(c1ccccc1SCc1ccc(F)cc1)N1CCOCC1,2%,4.1,·,8,-3,
O=C(CCCCl)NC(=S)Nc1ccc(N2CCOCC2)cc1,-2%,-0.6,·,-3,·,
COCC(=O)Nc1ccc([N+](=O)[O-])cc1OC,-3%,-3.2,-27,-2,3,
CCCCn1c(=S)[nH]c2ccccc2c1=O,8%,2.5,-24,3,5,
O=C(Cc1c(O)c2ccccc2[nH]c1=O)NCc1ccc(F)cc1,-5%,-2.8,-29,-4,6,

# Additional results.
SMILES,Mtb growth,RecA intein inh,YopH inh,Mtb bLac sens,Arbovirus anti,others
O=C1CC(c2ccc(Cl)cc2)n2nc(N3C(=O)c4ccccc4C3=O)nc2N1 (stereo not given),2%,-1.0,-172,-16,-6,
O=C(NCc1ccccc1)/C(=C/c1ccco1)NC(=O)c1ccco1,3%,1.6,·,1,16,
O=C(c1cc(Br)c[nH]1)N1CCCCC1,·,0.0,·,3,·,
C=CCNC(=O)c1c(CSc2ccc(F)cc2)noc1C(=O)NCCC,·,1.4,·,-9,·,
COc1ccc(/C=C2\SC(=Nc3ccccc3)NC2=O)cc1,·,-0.5,·,8,·,
COc1ccc2c(CC(=O)N3CCc4ccccc43)coc2c1,-10%,-0.2,12,-1,·,

# Source: PubChem BioAssay (several laboratories)

# Some of the compounds tested; rates above refer to the full screens.
